# ugtP null kill = compounds lethal to S. aureus RN4220 ugtP deletion mutant | OD600 growth, 16 h; some inactives read as strong as hits | growth inhibition, % (test concentration not listed) | 330,000 tested, 0.54% active | AID 1259309;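 active means z-score under -3 and OD600 up to 0.15 on both plates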;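 further: plate controls were untreated wells for no effect and antibiotic for full effect; wells of about 80 µL received 100 nL stock; the first replicate is given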
# Mtb hypoxia rep = Mtb hypoxia fluorescent reporter inhibition. M. tuberculosis hypoxia-regulated fluorescent reporter, fluorescence. fluorescence inhibition, % (test concentration not listed). 300,000 tested, 0.1% active;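 active means 35 to 45% if threefold the growth effect, above 45% if 1.5-fold the growth effect; inactive means the rest, general growth blockers included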;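 further: wells of about 50 µL received 100 nL stock; 0% = vehicle wells and 100% = reference inhibitor wells; whole bacteria with a GFP reporter of the hypoxia response; strong numbers were not always called active; many hits fall short of the cut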
# RN4220 kill = S. aureus RN4220 growth inhibition | inhibition, % (test concentration not listed) | 330,000 tested, 0.33% active | OD600, 16 h | AID 1259311;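 active means z-score of -3 or lower and OD600 up to 0.18 on both plates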;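 further: plate controls were untreated cells for no effect and reference antibiotic for full effect; stock transfer was 100 nL into about 80 µL; one replicate is shown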
# PrP 5UTR inh = suppresses PrP 5' UTR mRNA reporter expression. 340,000 tested, 0.35% active. cell-based PrP 5' UTR mRNA reporter, plate reader. inhibition, % (test concentration not listed);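 active means every replicate at 50% or more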;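 further: 0 = median of the neutral control wells; tested in H4 reporter cells; numbers are from one replicate; inactives centre near -14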
# BJeLR viability = BJeLR cell viability loss; inhibition, % (test concentration not listed); 300,000 tested, 0.17% active; BJeLR (HRASV12) viability, CellTiter-Glo ATP luminescence, 48 h; reference of the scale not given here;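 active means replicate mean above 50%; inconclusive means above 50% but judged a plate artefact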;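 further: 50 nL library stock added to about 25 µL; numbers are from one replicate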
# Autofluor counter = compound fluorescence in toxin protease inhibitor counterscreen | AID 624483 | compound autofluorescence counterscreen, microsphere flow cytometry; active compounds read high | 360,000 tested, 3.1% active | fluorescence intensity (concentration not given with the values);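 active means at least 3 SD above the mean of all compounds, about 16000 in these data; inconclusive means too few beads counted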;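 further: 100 nL of 1 mM stock went into each well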
# Mtb hypoxia rep growth = further read-out of Mtb hypoxia rep, marked with its call; growth inhibition, %; measured here: M. tuberculosis growth (absorbance);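 0% = vehicle and 100% = reference antibiotic; read after six days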
# * marks the source's active call; other numbers are inactive results; ? = inconclusive; nt = not tested or not shown.
SMILES,ugtP null kill,Mtb hypoxia rep,Mtb hypoxia rep growth,RN4220 kill,PrP 5UTR inh,BJeLR viability,Autofluor counter
O=C1c2ccccc2C(=O)N1CCCP(=O)(O)CCc1ccccc1,7,nt,nt,-1.6,-13,10,4665
CCN(CC)CCCNCC(=O)Nc1cc(C)on1,8,0,4,2.1,2,-10,3145
CCc1ccc(CN2CCN(C(=O)Cc3ccccc3)CC2)cc1,0,-2,-1,-0.5,-3,-4,3804
COc1ccccc1CC(=O)Nc1ccc(NC(=O)c2cccs2)cc1,7,13,2,2.9,-18,2,5923
O=[N+]([O-])c1ccc2nc(-c3ccccc3)[nH]c2c1,-4,19,11,4.0,-70,10,2056
N#C/C(=C/c1cn[nH]c1-c1ccc(Br)cc1)C(=O)O,15,14,8,7.8,-8,0,4746
CCOc1ccc(N2C(=O)CC(n3ccc(C)n3)C2=O)cc1 (centres undefined),0,9,11,0.2,-4,-4,9661
COc1cc(C(=O)N2CCN(C/C=C/c3ccccc3)CC2)cc(OC)c1C,5,2,9,0.8,-24,-1,8792
O=C(CN1C(=O)NC2(CCCCC2)C1=O)NCc1ccc2c(c1)OCO2,7,10,11,2.0,-17,-28,4418
O=C(CSc1n[nH]c(=O)[nH]c1=O)NC1CC1,-16,-8,10,-0.8,-19,2,4427
Cc1cccc(OCc2nnc(N)s2)c1,0,9,11,5.1,-68,-3,24413*
Cc1cc(C)nc(NS(=O)(=O)c2ccc(NS(=O)(=O)c3ccsc3)cc2)n1,-9,-10,-4,-1.1,nt,9,3827
COc1cc(C(=O)NCc2cccc3ccccc23)ccc1OCc1ccccc1,5,10,4,-14,-34,-9,4383
CCOC(=O)C1=NN(C(=O)COc2ccccc2)C(O)(c2ccc(Br)cc2)C1 (centres undefined),2,14,4,0.3,-21,-16,4085
N#CCC(Cc1ccccc1)N1CCC(NC(=O)OCc2ccccc2)CCC1=O (centres undefined),5,-7,11,2.7,nt,nt,nt
COc1ccccc1NC(=O)NC1(C)CCS(=O)(=O)C1 (centres undefined),2,5,-1,0.6,-23,-1,4200
Cc1cc(C)nc(N2CCC(C(=O)N3CCN(c4cc(Cl)ccc4C)CC3)CC2)n1,-9,8,14,-6.9,-14,0,11519
CCCn1c(NC(=O)C2CCN(C(=O)c3ccc(F)cc3)CC2)nc2ccccc21,9,2,-4,-0.2,-23,10,?
C[n+]1cc(C(=O)N2CCCCC2)ccc1/C=C/c1c[nH]c2ccccc12,2,-2,-1,0.8,-11,-1,6226
Cc1ccc(N2C(=O)CC3(CCCC3)CC2=O)cc1,5,10,-7,3.6,-13,0,5109
CN(C(=O)COC(=O)CSc1ccc(C(N)=O)cc1[N+](=O)[O-])C1CCCCC1,4,3,4,2.3,-23,1,6418
O=C(Nc1nc2c(ccc3ccccc32)s1)c1cc([N+](=O)[O-])ccc1N1CCOCC1,-1,7,2,4.7,nt,-1,nt
c1ccc(Oc2cnc3ccccc3n2)cc1,6,2,11,9.0,-39,-3,23310*
CN(CC(=O)Nc1ccccc1C(F)(F)F)C(=O)c1ccc(N2C(=O)CCC2=O)cc1,-4,6,8,0.5,-28,-3,?
COc1ccc(-c2nc(C#N)c(N3CCCCCC3)o2)cc1,-5,5,7,1.1,-10,-3,12877
CCOc1ccc(NC(=O)N(C2CCCCCC2)C2CCN(C(C)=O)CC2)cc1,-2,14,3,7.0,-20,-2,3149
CCOC(=O)c1cc(NC(=O)c2ccccc2)c(=O)oc1-c1ccccc1,-15,0,-5,-2.4,-8,14,?
O=C(c1ccc(NS(=O)(=O)c2ccccc2)cc1)N1CCCCCC1,6,8,1,2.5,-21,-9,?
O=C(CC1(O)C(=O)Nc2ccccc21)c1ccccc1O (centres undefined),-8,8,8,-4.1,-15,-12,3217
O=C(NC(C(=O)c1ccccc1)N1CCOCC1)c1ccccc1 (centres undefined),-3,-6,-4,1.4,-20,2,4115
COC(=O)C1=C(c2cc3ccccc3s2)CC2CCC1N2C(=O)NCc1cccc2ccccc12 (centres undefined),6,20,4,-9.0,nt,nt,nt
CCCCN1C(=O)C(=O)N(CC(=O)Nc2ccc(C(N)=O)cc2)C1=O,9,0,-5,2.7,-14,nt,2942
Cc1nn(CC(=O)N2CCc3ccccc3C2)c(C)c1[N+](=O)[O-],9,19,11,7.1,-19,1,4636
O=C(Nc1cc(Cl)ccc1O)c1snnc1-c1ccccc1,-14,-3,4,3.2,-9,10,11228
CCO[C@@H]1OC(C(=O)N2CCOCC2)=C[C@H](C)[C@H]1CCCO,nt,nt,nt,nt,-18,14,3439
Cc1ccc(NC(=O)C2CCN(S(=O)(=O)c3ccc4c(c3)CCCC(=O)N4)CC2)c(Br)c1,3,6,15,-0.8,4,-8,5439
Nc1nc(N)nc(-c2cc([N+](=O)[O-])ccc2O)n1,-3,-5,-10,8.7,-5,nt,3065
CC(Sc1ccccc1)C(=O)Nc1cccc(N(C)S(C)(=O)=O)c1 (centres undefined),9,0,4,-1.4,-49,4,8054
COc1ccc(C(=O)NNC(=O)c2ccc3ccccc3c2)cc1,-10,9,5,1.2,-31,nt,3488
Cc1nc(Sc2nnnn2C)c2c3c(sc2n1)CCC3,-4,nt,nt,8.9,-15,nt,4842
CC(C)Sc1nnc([C@H](Cc2ccccc2)NC(=O)OC(C)(C)C)o1,3,10,11,0.6,0,0,3704
CCOC(=O)c1c(NC(=O)C=CC(=O)O)sc(C)c1-c1ccccc1,15,-1,-2,21,nt,nt,nt
O=C(CSc1cccc2cccnc12)NN=Cc1cccnc1,-3,2,9,5.1,nt,nt,nt
Cc1cc(=O)oc2cc(OC(C)C(=O)Nc3nccs3)ccc12 (centres undefined),-4,-1,3,1.3,-27,2,5299
O=C(Cn1cc(C(F)(F)F)cc(Cl)c1=O)Nc1cccc(Cl)c1,2,15,7,1.6,-7,-2,2431
O=C(Nc1ccccc1)C1=C[C@H](c2ccc(Br)cc2)C[C@H](OCc2ccc(CO)cc2)O1,nt,nt,nt,nt,-24,-5,3982
COCCn1c(C)cc(C(=O)COC(=O)c2[nH]c(C)c(C(C)=O)c2C)c1C,11,4,-5,0.7,-13,nt,?
COc1ccc(S(=O)(=O)Nc2ncccc2C)c2ccccc12,7,18,9,1.8,-10,11,?
C=CCOC(=O)C(=O)C=Cc1ccc2c(c1)Cc1ccccc1-2,6,17,9,1.1,nt,nt,nt
CCOC(=O)c1[nH]c2ccc(F)cc2c1NC(=O)CN1CCN(C/C=C/c2ccccc2)CC1,-19,11,5,-13,-18,2,2952
CC(=O)Nc1ccc2nc3ccccc3nc2c1,nt,nt,nt,nt,-81,13,4069
CC1CCN(C(c2cccs2)c2nnnn2Cc2ccccc2)CC1 (centres undefined),-11,-3,-7,1.1,-5,-8,4281
N#CCCCn1c(-c2ccccc2)noc1=O,7,10,4,1.5,-15,6,23665*
CCOc1ccc(S(=O)(=O)Nc2c(C)n(C)n(-c3ccccc3)c2=O)cc1,6,-4,8,2.8,-13,-3,4127
CCN(C(=O)c1cnc2scc(C)n2c1=O)c1ccccc1C,2,10,4,-2.9,-1,-5,4350
Cc1ccc(Cl)cc1N1CCN(S(=O)(=O)c2cnc[nH]2)CC1,0,-7,-8,26,0,8,5822
CC(=O)Nc1ccc(S(=O)(=O)NCCNC(=O)c2ccccc2F)cc1,3,4,7,1.6,-28,-3,4213
CCCn1c(CC)nc([N+](=O)[O-])c1S(=O)(=O)c1ccccc1,7,15,20,19,0,1,9231
CCc1cccc(C)c1NC(=S)NCCc1c(C)[nH]c2ccc(C)cc12,3,1,-3,1.9,-7,1,5910
COC(=O)C1=C(C)OC(N)=C(C#N)C1c1cc2cc(C)ccc2nc1Cl (centres undefined),5,10,4,7.6,-33,-7,4001

# A second format for 4 compounds above:
molecule	ugtP null kill	Mtb hypoxia rep	Mtb hypoxia rep growth	RN4220 kill	PrP 5UTR inh	BJeLR viability	Autofluor counter
N#CCCCn1c(-c2ccccc2)noc1=O	7	10	4	1.5	-15	6	23665*
CCOc1ccc(S(=O)(=O)Nc2c(C)n(C)n(-c3ccccc3)c2=O)cc1	6	-4	8	2.8	-13	-3	4127
CCN(C(=O)c1cnc2scc(C)n2c1=O)c1ccccc1C	2	10	4	-2.9	-1	-5	4350
O=C(Cn1cc(C(F)(F)F)cc(Cl)c1=O)Nc1cccc(Cl)c1	2	15	7	1.6	-7	-2	2431

# Additional structures follow.
SMILES,ugtP null kill,Mtb hypoxia rep,Mtb hypoxia rep growth,RN4220 kill,PrP 5UTR inh,BJeLR viability,Autofluor counter
O=C(c1cccc(N2CCCC2=O)c1)N1CCN(c2ccccc2)CC1,-3,17,13,-12,-21,-1,2782
Cc1cccc(NC(=O)CN2C(=O)NC(C)(c3ccc4c(c3)OCO4)C2=O)c1 (centres undefined),-6,6,9,4.3,-28,2,8489
O=C(Nc1ccccc1C(F)(F)F)C(O)(c1ccccc1)C1CCCCC1 (centres undefined),1,7,11,5.5,-7,nt,4058
CCc1cc(=O)oc2cc(OCC(=O)N3CCC(C(N)=O)CC3)ccc12,-7,nt,nt,2.8,-29,-4,5847
O=C(CC(=O)c1c(F)cccc1Cl)c1ccccc1O,10,-4,-1,12,nt,4,3615
COc1ccc(NC(=O)CSc2nc(O)cc(=O)[nH]2)c(OC)c1,11,6,2,0.8,-5,1,?
COc1cc(OC)cc(-c2sc3ccc(OC)cc3c2-c2ccc(OCCN3CCCCC3)cc2)c1,55,20,20,27,-10,nt,3852
COc1ccccc1-c1ccc(NC2CCCCC2)nn1,-4,nt,nt,5.4,-28,4,23544*
Cc1cc(C)n(S(=O)(=O)c2ccc(C(C)(C)C)cc2)n1,13,9,-3,4.2,-26,1,7952
CCCCNC(=O)Nc1nc2ccccc2s1,3,14,10,5.1,-67,-15,4428
COc1ccc([N+](=O)[O-])cc1N(CC(O)Cn1nnc2ccccc21)S(=O)(=O)c1ccc(C)cc1 (centres undefined),2,4,-2,3.6,7,4,17924*
Oc1ccc(Br)cc1C=Nc1ccc(Cl)cc1,8,-9,-4,8.6,-28,-6,2434
COc1ccccc1NC(=S)NCCC(c1ccccc1)c1ccccc1,46,14,-3,-1.3,-27,nt,2210
CCOC(=O)C1CCCN(c2c(NCCc3ccc(Cl)cc3)c(=O)c2=O)C1 (centres undefined),-6,2,-2,3.9,-11,7,4771
Cc1ccc(C(=O)NCCNC(=O)Cc2ccccc2)cn1,2,10,-2,5.1,-11,-8,3848
COC(=O)C1=C(O)/C(=C\c2cc(C)n(-c3ccccc3F)c2C)N=C1C,-4,-5,16,-1.8,-7,8,3470
COc1ccc(S(N)(=O)=O)cc1C(=O)OCC(=O)Nc1sccc1C#N,6,13,5,2.5,-21,nt,2948
CC12C=CC(=O)C=C1CC(O)C1C2CCC2(C)C1CCC2(C)O (centres undefined),6,14,11,0.4,-16,nt,3779
CC(C)CCC(CCN1CCCC1)c1ccc2c(c1)OCO2 (centres undefined),1,10,16,0.0,-17,2,6219
Nc1c(N(C(=O)Nc2ccc(Cl)c(Cl)c2)C2CCCC2)c(=O)[nH]c(=O)n1Cc1ccccc1,10,-7,-2,17,2,6,2507

# Reprinted at random: four compounds from above, in no set order.
SMILES,ugtP null kill,Mtb hypoxia rep,Mtb hypoxia rep growth,RN4220 kill,PrP 5UTR inh,BJeLR viability,Autofluor counter
O=C(c1cccc(N2CCCC2=O)c1)N1CCN(c2ccccc2)CC1,-3,17,13,-12,-21,-1,2782
COc1ccc(NC(=O)CSc2nc(O)cc(=O)[nH]2)c(OC)c1,11,6,2,0.8,-5,1,?
O=C(Nc1ccccc1C(F)(F)F)C(O)(c1ccccc1)C1CCCCC1 (centres undefined),1,7,11,5.5,-7,nt,4058
Cc1cccc(NC(=O)CN2C(=O)NC(C)(c3ccc4c(c3)OCO4)C2=O)c1 (centres undefined),-6,6,9,4.3,-28,2,8489

# The list goes on:
SMILES,ugtP null kill,Mtb hypoxia rep,Mtb hypoxia rep growth,RN4220 kill,PrP 5UTR inh,BJeLR viability,Autofluor counter
CCOC(=O)c1oc2ccc(S(=O)(=O)Nc3ccc4c(c3)n(C)c(=O)n4C)cc2c1C,18,6,6,5.2,-28,-2,12649
Cc1ccc(-n2nc(C)c3c2OC(N)=C(C#N)C3c2ccccc2F)cc1 (centres undefined),14,3,0,17,-1,1,2336
O=C(OCCOc1ccc(Cl)cc1)c1cc(S(=O)(=O)N2CCCCC2)ccc1N1CCOCC1,-2,2,9,0.9,nt,nt,?
O=C(NCCSc1ccc(Cl)cc1)c1ccc(CN2CCOCC2)cc1,8,9,13,4.7,-21,3,2458
COc1ccc(OCCNC(=O)c2cccc(Oc3ccc(C(F)(F)F)cc3[N+](=O)[O-])c2)cc1,3,3,8,-1.9,-10,-5,2482

# Source: PubChem (several laboratories)
